Screening results deposited in PubChem by several laboratories.
Beta2AR agonist = beta2AR agonists driving receptor internalization, primary screen, cell-based, FAP fluorogen, flow cytometry; response, % (test concentration not listed); AID 504454, 2011; Beta-2 adrenergic receptor (Homo sapiens), P07550; 0.43% of 340,000 active; Am2.2-beta2AR cells; reference of the scale not given here;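 active = response above a set limit, near 3 SD of response in nonfluorescent compounds, cut at about 42% in these data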;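 note: stock transfer was 100 nL into about 11 µL; a reference agonist was the positive control; negative values mostly stem from fluorescent compounds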
Bfl-1 A1 inh = caspase 3/7 activation in MEF A1-2A-BIM cells, primary screen, A1 inhibitor project, cell-based, luminescence, HTS; Caspase-Glo 3/7 luminescence, 3 h; percent of clofoctol response, vehicle zero; caspase activation, % (concentration not given with the values); 0.066% of 330,000 active;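 active = over half of replicate activation scores above 10%, or exactly half above 10 with the replicate mean above 10; inconclusive = replicate mean below 10 yet half the replicates above 10; inactive = over half of replicates below 10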;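 note: wells of about 30 µL received 50 nL stock; many hits fall short of the cut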
Ecoli growth = E. coli growth inhibition, primary screen, OD600; Escherichia coli growth, 23 h; stronger effect = lower value; OD600 absorbance (concentration not given with the values); 0.21% of 330,000 active; AID 1053175, 2014;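 active = OD600 absorbance below the run mean of sample wells minus 3.6 SD, in any replicate, cut at about 0.56 in these data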;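 note: stock transfer was 300 nL into about 60 µL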
HNF4A DNA FP = change in binding of human HNF4A to DNA, primary screen, biochemical, fluorescence polarization, FITC-DNA; 1 h; activity change, % at 10 µM; 0.3% of 360,000 active; in the data active = activity change above about 30%, passing the limit was not always enough;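 note: controls were the assay level and a saturating level of protein; the project sought stronger binding though the title names inhibitors; some compounds called inactive have numbers as strong as hits; positive values seem to mean higher polarization but the record does not say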
LANA-H2A inh = blockers of LANA interaction with H2A/H2B – biochemical, FP readout, HTS, primary screen | Protein LANA1 (Human herpesvirus 8 type P (isolate GK18)), Q9QR71 | cell-free LANA-H2A/H2B peptide, fluorescence polarization | inhibition, % (no concentration beside the values) | 0.6% of 320,000 active; in the data active = inhibition mostly above about 10%, no sharp cut-off; inactive = mostly below about 6.7%;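 note: stock transfer was 7.5 nL into about 10 µL; 0% = median of vehicle wells and 100% = median of positive control wells; one replicate is shown; the record names a cut of 25% in any replicate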
Target sequence (Q9QR71 whole entry, looked up): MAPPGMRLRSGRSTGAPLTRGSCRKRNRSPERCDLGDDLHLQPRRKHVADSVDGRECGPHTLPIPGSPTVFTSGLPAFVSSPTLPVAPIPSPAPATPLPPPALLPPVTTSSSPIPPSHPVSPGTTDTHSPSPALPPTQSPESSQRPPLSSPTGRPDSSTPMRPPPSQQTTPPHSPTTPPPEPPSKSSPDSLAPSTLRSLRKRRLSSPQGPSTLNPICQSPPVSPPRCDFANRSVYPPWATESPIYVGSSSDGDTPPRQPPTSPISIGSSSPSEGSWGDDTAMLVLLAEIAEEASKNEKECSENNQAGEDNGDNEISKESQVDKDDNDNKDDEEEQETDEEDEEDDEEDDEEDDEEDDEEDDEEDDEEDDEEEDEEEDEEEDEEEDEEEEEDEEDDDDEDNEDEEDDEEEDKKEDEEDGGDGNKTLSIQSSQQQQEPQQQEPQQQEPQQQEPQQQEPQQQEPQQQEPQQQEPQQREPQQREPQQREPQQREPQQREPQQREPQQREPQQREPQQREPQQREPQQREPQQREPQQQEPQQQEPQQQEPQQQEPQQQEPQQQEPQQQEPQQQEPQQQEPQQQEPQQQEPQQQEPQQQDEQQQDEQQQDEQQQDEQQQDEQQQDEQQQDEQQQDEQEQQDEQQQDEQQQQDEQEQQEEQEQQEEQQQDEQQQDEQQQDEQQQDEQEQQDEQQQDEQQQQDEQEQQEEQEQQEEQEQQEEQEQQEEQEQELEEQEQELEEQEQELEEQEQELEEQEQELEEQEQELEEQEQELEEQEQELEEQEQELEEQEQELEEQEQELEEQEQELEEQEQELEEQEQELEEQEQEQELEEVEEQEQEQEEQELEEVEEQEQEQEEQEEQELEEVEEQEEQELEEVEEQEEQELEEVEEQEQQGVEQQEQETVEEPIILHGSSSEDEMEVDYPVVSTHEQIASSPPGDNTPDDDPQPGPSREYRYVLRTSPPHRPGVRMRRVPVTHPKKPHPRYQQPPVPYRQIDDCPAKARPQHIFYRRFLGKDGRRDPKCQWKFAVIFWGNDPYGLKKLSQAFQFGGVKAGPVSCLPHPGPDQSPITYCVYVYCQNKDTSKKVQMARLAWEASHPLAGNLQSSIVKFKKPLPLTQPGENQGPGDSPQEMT
UCH37 inh = inhibitors of human UCH37 deubiquitinase, primary screen, biochemical, Ub-AMC cleavage, fluorescence. Ubiquitin carboxyl-terminal hydrolase isozyme L5 (Homo sapiens), Q9Y5K5. purified proteasome/UCH37. inhibition, % (test concentration not listed). 0.33% of 330,000 active. AID 588478, 2011;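 active = mean of two replicates above 20%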;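 note: 0% = compound-free wells with enzyme and 100% = wells lacking proteasome; stock transfer was 100 nL into about 20 µL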
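Material: Human UCH37 enzyme supplied as purified proteasome complex | Schedule: 30 min compound-proteasome preincubation then 25 min substrate reaction, room temperature | Detection: AMC fluorescence from Ub-AMC cleavage, excitation 355 nm, emission 460 nm | Benchmarks: Wells without proteasome as full block, compound-free enzyme plus substrate as uninhibited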
Vif A3G = inhibitors of Vif binding to APOBEC3G peptide, primary screen, biochemical, TR-FRET, GST-Vif 1-94, biotin-A3G peptide, dose response retest (AID 1117319); Virion infectivity factor (Human immunodeficiency virus type 1 group M subtype B (isolate …; TR-FRET GST-Vif / biotin-A3G peptide binding; higher % means a stronger effect; test concentration not given here; strong numbers were not always called active; one-dose inhibition, %; IC50 in µM for titrated hits; 0.57% of 260,000 active;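 active = above the screen mean plus three standard deviations and confirmed in dose response; inconclusive = results disagree or hit not tested in dose response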;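 note: Vif residues 1-94 fused to GST binding biotinylated APOBEC3G peptide 110-148; 0% = full assay without inhibitor and 100% = GST in place of GST-Vif; retest series ran down from 100 µM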
* hit, by the source's call; ? = inconclusive; nt = no result given; + = active, no number.

Results follow in this order: Bfl-1 A1 inh, UCH37 inh, Ecoli growth, Beta2AR agonist, LANA-H2A inh, Vif A3G, HNF4A DNA FP
Cc1nc(C)c(C(=O)N(c2ccc(C)c(C)c2)C(C(=O)NCc2ccco2)c2ccccc2)s1 (stereo unspecified)
  0.1, 3.1, 0.679, 1.6, 2.2, -2.3%, 1.4
O=C(CCNC(=O)c1ccc([N+](=O)[O-])cc1)NCc1cccs1
  3.2, 3.2, 0.688, 22.3, 8.2, -15.3%, 4.3
O=C(O)C1CCN(C(=O)c2scc3c2OCCO3)CC1
  0.0, 5.3, 0.74, -6.5, 4.7, -2.3%, 0.6
Cc1cccc(-n2nnnc2SCC(=O)NCC2(N3CCOCC3)CCCCC2)c1C
  0.0, 7.3, 0.674, 13.8, +, 4.4%, 2.4
Cc1ccc(NS(=O)(=O)c2cc(C(=O)OCC(=O)NCC3CCCO3)ccc2C)cc1 (stereo unspecified)
  0.1, 0.8, 0.657, 1.4, -10.5, nt, -0.5
COn1cnnc1-c1ccccc1
  0.3, 1.3, 0.701, 4.2, -5.8, 2.5%, 3.5
COc1ccccc1NC(=O)CSc1nnc(CNC(=O)c2ccco2)n1C
  0.1, 2.1, 0.675, -5.1, -1.5, nt, -3.5
O=C(Nc1ccccc1N1CCCCC1)c1cccc([N+](=O)[O-])c1
  0.1, 2.2, 0.693, -11.8, 0.1, ?, -2.1
COc1ccc(NC(=O)c2cnn(-c3ccccc3)c2C)cc1
  -7.4, 4.2, 0.68, -8.3, -12.3, nt, 4.6
O=C(CNC(=O)C(c1ccccc1)c1ccccc1)OCC(=O)c1cccs1
  0.1, 1.6, 0.674, 1.7, nt, nt, 2.0
CCCC[C@H](CN(N=O)[C@@H](Cc1ccccc1)CN(C)N=O)N(CCc1ccccc1)N=O
  -0.1, -1.7, nt, -4.5, -0.5, 3.1%, 3.9
C/C(=N\NC(=O)c1cccnc1)c1ccc(C)c([N+](=O)[O-])c1
  0.1, nt, nt, -1.6, -1.3, 1.9%, 3.2
CCOc1ccccc1NC(=O)CCN1CCN(S(=O)(=O)c2ccc(OC)cc2)CC1
  -0.7, 2.0, 0.773, -6.2, -0.6, -2.4%, 3.3
COC(=O)c1ccc(CS(=O)(=O)c2ccc(C)cc2)o1
  1.1, 0.9, 0.657, 7.2, 4.1, 9.9%, -2.4
COc1ccc(/C(N)=C/C(=O)C(C)(C)C)cc1
  0.8, 4.9, 0.661, 12.7, 1.0, -3.0%, 0.1
CCCCNc1nc(NC)nc(Cl)c1SC
  0.2, 2.0, 0.702, -4.0, 6.1, -5.3%, 1.9
Cc1cc(Nc2cccc([N+](=O)[O-])c2)c2ccccc2n1
  0.6, 3.5, 0.699, 24.1, -1.0, 10.0%, 5.4
CCCCNC(=O)C(CC)Sc1nc2sc(C(=O)OC)c(C)c2c(=O)n1N (stereo unspecified)
  0.4, -319.8, 0.728, -5.3, -1.1, -9.8%, 2.1
COc1ccc(OCc2cc(/C=N\NC(=O)c3ccccc3)ccc2OC)cc1
  0.9, nt, nt, 2.2, 0.1, 1.9%, -1.4
O=C(O)C1=C[C@H](c2ccc(C(F)(F)F)cc2)C[C@H](OCc2ccc(CO)cc2)O1
  -0.1, 0.4, nt, -9.1, -0.9, -6.6%, -1.1
Cc1cc(C)c(C)c(S(=O)(=O)N2CCN(c3ccc(O)cc3)CC2)c1C
  1.7, 0.0, 0.663, -4.7, 1.3, ?, 2.6
C=CCn1c(SCC(=O)NC2CCCCC2)nc2ccccc2c1=O
  1.4, 3.3, 0.731, -4.1, -10.5, -4.3%, -0.2
CCOc1ccc(N2C(=O)CC(N(CCc3ccc(OC)cc3)C(=O)c3cccc(F)c3)C2=O)cc1 (stereo unspecified)
  0.1, -0.2, 0.701, -5.3, 0.4, nt, 2.9
Cc1ccc(N2CC(C(=O)Nc3cccc(F)c3)CC2=O)cc1 (stereo unspecified)
  -0.3, 2.4, 0.68, 1.9, 4.1, -7.9%, -1.3
CC(C)(CO)CNC1CCCN(C2Cc3ccccc3C2)C1 (stereo unspecified)
  0.7, 1.8, 0.701, -4.8, -3.5, -3.8%, -1.3
CCCC1SCC(C)(C)NC1=O (stereo unspecified)
  nt, 1.3, 0.69, -2.4, nt, -1.7%, 1.1
NC(=O)SC/C(=N\S(=O)(=O)c1ccccc1)Nc1ccccc1
  -0.3, nt, nt, 1.3, -1.1, 17.2%, -0.3
C=CCn1c(SC(F)F)nc2scc(-c3ccco3)c2c1=O
  0.5, 1.2, 0.678, 5.3, 5.4, nt, 3.8
O=C(COc1cccnc1[N+](=O)[O-])NCc1ccccc1
  -0.2, 0.5, 0.623, 6.7, 1.3, -4.6%, 2.9
CCOC(=O)CCc1c(C)c(C#N)c2nc3ccccc3n2c1-n1ccnc1
  0.4, -0.7, 0.703, 4.5, -0.9, 30.2%, -2.2
CCO[C@@H]1OC(C(=O)N2CCCCCCC2)=C[C@H](c2ccc(C(F)(F)F)cc2)[C@H]1CCCO
  0.0, 3.7, nt, -1.7, -5.6, 6.6%, -0.1
COc1ccc(F)c(-c2nc(CN3CCN(C(=O)c4ccco4)CC3)c(C)o2)c1
  -0.4, -0.2, 0.725, 7.7, -5.4, 16.5%, -0.9
COc1ccc(/C=N/NC(=O)C(=O)N2CCCCCC2)cc1
  -0.2, nt, nt, -2.5, 4.7, nt, 3.9
CCCn1c(=N)c(S(=O)(=O)c2ccccc2)cc2c(=O)n3cccc(C)c3nc21
  -0.2, -25.6, 0.708, -13.5, 0.4, nt, -1.4
CCS(=O)(=O)c1nc(S(=O)(=O)c2ccc(C)cc2)c(NCc2ccccn2)s1
  -0.2, 2.0, 0.613, -29.5, 5.1, nt, -3.7
CC(C)CCN1C(Nc2ccccc2)=NC[C@@H]1Cc1ccccc1
  0.3, 2.5, nt, 3.8, -389.2, nt, 3.1
Cc1ccc2c(c1)cc1c(=O)n(CC(=O)N(C)c3ccccc3)nc(C)n12
  -0.5, -11.7, 0.65, 3.3, -5.6, -10.8%, 2.3
CCc1ccc(C(=O)CCC(=O)Nc2cccc(S(=O)(=O)N3CCCCC3)c2)cc1
  nt, 4.3, 0.668, -15.8, nt, -9.7%, -1.3
O=[N+]([O-])c1ccccc1S(=O)(=O)N1CCCCC1
  0.3, 4.8, 0.663, 0.5, nt, nt, -0.3
COc1cc(/C=C2\SC(=O)N(c3ccc(O)cc3)C2=O)cc(OC)c1OC
  -0.7, -9.3, 0.732, 5.1, 2.4, 0.1%, -0.4
CCOc1ccc(NC(=O)c2csc3c2CCCC3)cc1
  -3.1, nt, nt, -5.6, 2.5, -4.6%, -0.5
CCOc1cc(C(=O)CCC(=O)OCC(=O)N2c3ccccc3NC(=O)C2(C)C)ccc1O
  0.3, 2.1, 0.633, -0.2, -0.8, ?, 0.6
Cc1c(NC(=O)CN2c3ccccc3CC2C)c(=O)n(-c2ccccc2)n1C (stereo unspecified)
  0.9, 5.5, 0.706, 3.0, -5.7, 4.7%, -1.4
COC(=O)c1cn(NC(=O)c2ccccc2[N+](=O)[O-])c(=O)c2ccccc12
  0.0, 2.6, 0.689, -0.6, -1.1, 1.6%, -2.7
Cc1cc(NC(=O)c2ccc(N3C(=O)C4C5C=CC(C5)C4C3=O)cc2)no1 (stereo unspecified)
  1.3, 4.4, 0.701, 4.0, 0.9, 11.1%, 2.8
CCCCSc1n[nH]c(=S)c2nc[nH]c12
  nt, 3.6, 0.663, 6.8, nt, -12.9%, 6.4
CCCCN1C(=O)NC(NC(=O)c2ccco2)(C(F)(F)F)C1=O (stereo unspecified)
  0.0, -1.7, 0.705, -6.7, 1.9, -1.1%, 1.6
CCN1CCN(S(=O)(=O)c2ccc(Cl)c(C(=O)N(C)Cc3cccc(Cl)c3Cl)c2)CC1
  -0.1, 3.1, 0.699, 1.1, 1.5, -1.8%, -3.5
COc1cc(C(=O)O)c2ccccc2n1
  0.2, -1.6, 0.663, -4.2, -10.6, nt, 2.1
CC[C@@H](C)[C@@H](C(=O)N1CCN(C(=O)OC(C)(C)C)CC1)n1cc(CCCN=C(NC(=O)OC(C)(C)C)NC(=O)OC(C)(C)C)nn1
  -0.6, 4.7, nt, 1.8, -2.0, nt, -0.5
O=c1[nH]c(CSc2ncnc3sccc23)nc2ccccc12
  -0.1, -0.4, 0.658, -6.4, -2.2, -15.1%, 2.9
CC(C)NC(=S)N/N=C1\CCCCc2ccccc21
  0.3, nt, nt, -4.8, 1.4, nt, -2.8
O=C(NC1CCCCC1NC(=O)c1ccco1)c1ccco1 (stereo unspecified)
  -2.0, -3.0, 0.785, 4.1, 0.3, 7.2%, -3.1
CCOC(=O)c1[nH]ncc1CN1CCCC(C(=O)c2ccc(OC)cc2C)C1 (stereo unspecified)
  0.5, 2.9, 0.704, -7.2, -0.5, -8.3%, 1.2
CCCCN(CCCC)S(=O)(=O)c1ccc2[nH]c(=O)[nH]c2c1
  1.4, 1.3, 0.713, -5.2, 0.4, 5.2%, -0.3
COc1ccc(S(N)(=O)=O)cc1C(=O)NNC(=O)CN(C)S(=O)(=O)c1ccc(Cl)cc1
  -0.2, 5.0, 0.693, -3.7, nt, -2.0%, 8.0
O=C(Nc1csc(Cl)c1)c1ccccc1
  -1.6, -0.1, 0.63, -10.7, 1.3, nt, 2.5
CCOC(=O)c1cn(CC#N)c2cc(F)c(F)cc2c1=O
  0.6, 5.7, 0.671, -13.5, -2.9, 6.7%, -3.8
CC1(C)OC(=O)N(CC(=O)Nc2ccccc2)C1(C)O (stereo unspecified)
  0.1, 3.2, 0.683, 6.0, 1.0, -11.7%, -1.8
Cc1cccc(-n2c(C)cc(/C=N/NC(=O)c3cccc([N+](=O)[O-])c3C)c2C)c1
  0.2, nt, nt, -0.2, -1.2, 2.3%, -1.8

Going on with the list.
Results follow in this order: Bfl-1 A1 inh, UCH37 inh, Ecoli growth, Beta2AR agonist, LANA-H2A inh, Vif A3G, HNF4A DNA FP
CN(C(=O)CS(=O)(=O)c1cn(CC(=O)N2CCOCC2)c2ccccc12)c1ccccc1
  0.4, -6.5, 0.627, -5.9, 33.8*, -2.0%, 1.1
Cc1ccc(C(=O)NC(=S)Nc2cc(C(F)(F)F)ccc2Cl)cc1
  -0.3, 1.2, 0.698, -1.0, -2.0, 4.4%, 1.1
Cc1ccc(SC[C@H](Cc2ccccc2)N2CC[C@@H](C)CCC2=O)cc1
  0.5, -1.1, nt, -0.4, -3.5, nt, -2.4
O=C(N/N=C/c1ccccc1OC(F)F)c1cc(-c2ccncc2)nc2ccccc12
  0.1, nt, nt, 9.9, -259.5, 12.4%, 2.5
CCCN(CC(=O)Nc1ccccc1OC)C(=O)c1cc(S(=O)(=O)NCc2ccccc2)ccc1C
  -0.1, 1.9, 0.705, -6.3, -8.3, -1.3%, 1.9
CCCN1CCc2c(sc3nc(SCC)n(-c4ccccc4)c(=O)c23)C1
  nt, -47.2, 0.667, 18.0, nt, -1.7%, 9.8
COc1ccc(N=Cc2nc(-c3ccccc3)oc2OC(=O)c2ccccc2)cc1
  -5.3, 2.0, 0.723, 11.2, 4.6, 1.4%, 4.3
CCCC(=O)NC(c1ccc(C)cc1)c1ccc2cccnc2c1O (stereo unspecified)
  1.1, nt, nt, 1.5, 1.4, 20.2%, -2.0
Nc1nc(SCC(=O)Nc2ccc(OCc3ccccc3)cc2)n[nH]1
  -1.6, 1.3, 0.638, 0.2, -0.3, 7.7%, 1.7
